# Choline anaer gr = blocks anaerobic gram-negative growth on choline; Gram-negative bacterium anaerobic choline minimal medium, absorbance growth; hits give low values; many inactives read as strong as hits in the columns shown; calls only; 55,000 tested, 0.2% active;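 active = growth z-score on choline under -2 at 7 or 20 h with little or no fall on glycerol, limits in tiers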;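 note: stock transfer was 300 nL into about 50 µL; the organism is E. coli; final concentration not given here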
# Choline anaer gr early = recorded beside Choline anaer gr, whose call it bears; z-score; measured here: choline growth z-score, timepoint 1;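 score of optical density at 7 h as mean of two plates; lower means less growth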
# Active calls of the source: *; i = inactive; & = joins results of further samples. An excerpt; rates above refer to the full screens.
Choline anaer gr	Choline anaer gr early	Structure
i	1.4	CCc1ccc(S(=O)(=O)N2CCN(c3nc4ccccc4n4cccc34)CC2)cc1
i	0.35	O=S(=O)(NCCn1c(C(F)(F)F)nc2ccccc21)c1ccc(Br)cc1
i	0.79	Cc1cc(C)cc(NC(=O)N2CCCC2c2cc(C(C)C)on2)c1 (stereo unspecified)
i	-0.66	Cc1ccc2c(c1)C(c1ccccc1)N(C(=O)c1ccc(Br)cc1)CC(=O)N2 (stereo unspecified)
i	-0.23	O=C1COc2cc(S(=O)(=O)N3CCOCC3)c(Cl)cc2N1Cc1noc(C2CC2)n1
i	-1.6	CN(CC(=O)N1CCN(c2ccccc2F)CC1)S(=O)(=O)c1c[nH]c(C(=O)N2CCCC2)c1
i	0.21	Cc1cc(C)c2c(n1)sc1c(=O)n(CC(=O)NC3CCCCC3)cnc12
i	0.35	Cn1c(=O)c2c(nc(Sc3nnc(NC(=O)C4CC4)s3)n2C)n(C)c1=O
i	-0.49	Cc1cc(-c2ccc(=O)[nH]n2)cc(S(=O)(=O)NCc2ccccn2)c1C
i	0.62	CCCCCN1CC(C)C(=O)Nc2ccccc21 (stereo unspecified)
i	0.57	Cc1ccc(-c2nc3c(cnn3-c3ccccc3)c(=O)n2-c2ccccc2)cc1
i	-0.72	CNc1oc(-c2ccc(Cl)cc2)nc1S(=O)(=O)c1ccc(F)cc1
i	-0.54	CC(C)Cc1nc2cccnc2n1C1CCN(S(C)(=O)=O)CC1
i	-2.1	CCOc1ccc(CCNC(=O)CC2Oc3ccccc3NC2=O)cc1 (stereo unspecified)
i	0.84	CCCCNc1oc(-c2ccccc2)nc1S(=O)(=O)c1ccccc1
i	-0.92	CCSc1nn(CC(=O)Nc2cccc(Cl)c2)c(N)c1S(=O)(=O)c1ccc(OC)cc1
i	0.28	COc1ccc(OC)c(NC(=O)N2Cc3c(sc4c3CCN(C)C4)-n3cccc3C2C)c1 (stereo unspecified)
i	-1.2	CCCNC(=O)Nc1cccc(-c2noc(-c3cccc(F)c3)n2)c1
i	-1.7	COc1ccc(OCC(=O)Nc2cc(Cl)ccc2OCc2cc(=O)n3oc(C)cc3n2)cc1
i	-0.49	CCOC(=O)c1nc(Nc2ccc(Br)cc2F)c2c(C)noc2n1
i	-0.54	O=C(c1csc(N2CCCC2)n1)N1CCCC1
i	1.1	CCOc1ccc(OCC)c(NC(=O)c2scc(-c3ccccc3)c2-n2cccc2)c1
i	-0.23	Cc1nc(CC(=O)Nc2nnc(C3CCCO3)s2)cs1 (stereo unspecified)
i	0.14	CCN(Cc1ccccc1)c1ccc(NS(=O)(=O)c2cc(C)ccc2C)cc1C(=O)O
i	-0.86	COc1cc(OC)c(NC(=O)N2Cc3c(sc4c3CCN(C)C4)-n3cccc3C2C)cc1Cl (stereo unspecified)
i	0.42	CS(=O)(=O)N1CCc2cc(C(=O)NCC3CCCO3)ccc21 (stereo unspecified)
i	0.52	Fc1ccc(CNc2nc(-c3ccccc3)cc(C(F)(F)F)n2)cc1
i	-0.45	Cc1cccc(C(=O)N2CC(C)C(=O)Nc3ccccc32)c1 (stereo unspecified)
i	0.27	CCCn1c(=O)c(N2CCC(NC(=O)Nc3ccccc3F)CC2)nc2ccccc21
i	-0.76	Cc1ccc2c(c1)N(C(=O)C1CCN(S(=O)(=O)c3cccnc3)CC1)CCO2
i	0.57	Cc1cc(=O)oc2c(C)c3occc(=O)c3cc12
i	-0.35	COc1cccc(C(=O)N2CCN(Cc3nc4cc(C(=O)N5CCCC5)ccc4n3C)CC2)c1
i	-0.69	c1cn(Cc2noc(CC3CCCCC3)n2)cn1
i	-0.19	CCOC(=O)c1c(CN2CCCC2)n(C2CCCCC2)c2cc(Br)c(O)cc12
i	0.51	O=C(NCc1ccc2c(c1)OCO2)c1cccc(-c2nc(-c3ccc(F)cc3)no2)c1
i	-1.1	Cc1ccc(NC(=O)N2CCCN(c3ccc(=O)n(-c4ccc(Cl)cc4)n3)CC2)c(Cl)c1
i	-0.37	Cc1cc(C)cc(N(CC(=O)N2CCN(C)CC2)S(=O)(=O)c2c(C)nn(C)c2C)c1
i	-0.82	COc1ccc(C2NCCc3c2[nH]c2ccccc32)cc1O (stereo unspecified)
i	-0.19	Cc1nc(CN2C(=O)COc3ccc(S(=O)(=O)NC4CC4)cc32)no1
i	0.17	Clc1ccc(Cl)c(-c2ccc(CNCc3ccco3)o2)c1
i	-2.8	Cc1ccc(NC(=O)Cn2nc3c4sccc4ncn3c2=O)cc1
i	0.38	CC(=O)N[C@@H](CC(C)C)C(=O)O
i	0.53	CCCCNc1nc(C(=O)OCC)nc2onc(CC)c12
i	0.21	CC1CCc2c(sc3ncn(CC(=O)O)c(=O)c23)C1 (stereo unspecified)
i	-1.3	COc1ccccc1NC(=O)CCc1nc(CSc2nc3ccccc3o2)no1
i	1.2	O=c1nc(SCc2ccccc2Cl)c2c(n1C1CCCCC1)CCC2
i	0.98	CN1C(=O)c2cc(C(=O)NCc3cccnc3)nn2CC1(C)C(=O)NC1CCCC1 (stereo unspecified)
i	2.1	C(=C\c1nc(-c2ccc3c(c2)nnn3C2CCCC2)no1)/c1ccccc1
i	-0.5	Cc1onc(-c2ccccc2Cl)c1C(=O)N1CCCC1c1cc(C(C)C)on1 (stereo unspecified)
i	0.5	O=C(CN1C(=O)CCn2nc(-c3ccc(Cl)cc3)cc21)NCCC1=CCCCC1
i	0.14	CCOc1ccc(CNC(=O)c2ccc(Nc3ncc(-c4cccc(F)c4)cn3)cc2)cc1OCC
i	0.25	COc1ccc(NCc2nc3nc4c(c(=O)n3[nH]2)CCC4)c(OC)c1
i	-1.6	OC(CNCc1ccc(-c2cc(Cl)ccc2Cl)o1)c1ccccc1 (stereo unspecified)
i	-1.4	Cc1cc(C2CCCN2Cc2cn[nH]c2-c2ccccc2)no1 (stereo unspecified)
i	1	CC1CCN(S(=O)(=O)c2nnc(NC(=O)CSc3ccc(Cl)cc3)s2)CC1
i	-1	Cc1cc2c(cc1S(=O)(=O)N(C)CC(=O)NCCC1=CCCCC1)OC(C)C(=O)N2 (stereo unspecified)
i	-0.4	O=C(Nc1ccc(CCc2nc3ccccc3[nH]2)cc1)c1cc2cc(Cl)ccc2[nH]1
i	-0.28	COC(=O)c1ccc2c(=O)n(-c3cc(OC)cc(OC)c3)c(N3CCN(C)CC3)nc2c1
i	-0.06	CCOC(=O)CCNC(=O)N1CCc2c([nH]c3ccccc23)C1c1ccccc1F (stereo unspecified)
i	0.84	O=C(Cn1nc2n(Cc3ccccc3)c(=O)c3ccccc3n2c1=O)c1ccc(F)cc1

# 4 compounds out of the list above, arranged by the number in Choline anaer gr early, falling.
Choline anaer gr	Choline anaer gr early	Structure
i	0.5	O=C(CN1C(=O)CCn2nc(-c3ccc(Cl)cc3)cc21)NCCC1=CCCCC1
i	-0.4	O=C(Nc1ccc(CCc2nc3ccccc3[nH]2)cc1)c1cc2cc(Cl)ccc2[nH]1
i	-1.4	Cc1cc(C2CCCN2Cc2cn[nH]c2-c2ccccc2)no1 (stereo unspecified)
i	-1.6	OC(CNCc1ccc(-c2cc(Cl)ccc2Cl)o1)c1ccccc1 (stereo unspecified)

# Carrying on:
Choline anaer gr	Choline anaer gr early	Structure
i	-0.17	O=C(NCc1ccc(F)cc1)c1cccc(-c2cnc(NC3CCCCC3)nc2)c1
i	0.73	C=CCSc1nc2c(-c3ccccc3)cn(C)c2c(=O)n1-c1ccc(CC)cc1
i	0.4	Cc1nc(N2CCOCC2)nc2c1C(=O)CC(C)C2 (stereo unspecified)
i	0.04	CCC(NC(=O)C(C)NC)C(=O)N1CC(O)CC1Cc1c(-c2[nH]c3cc(F)ccc3c2CC2CC(O)CN2C(=O)C(CC)NC(=O)C(C)NC)[nH]c2cc(F)ccc12 (stereo unspecified)
i	0.71	COc1cc(OC)c(NC(=O)C2CCN(S(=O)(=O)c3cc4c(cc3C)NC(=O)CO4)CC2)cc1Cl
i	-0.93	CCn1ccc2cc(S(=O)(=O)N3CCCC(C(=O)NCCCOC(C)C)C3)ccc21 (stereo unspecified)
i	0.3	COCCNC(=O)c1cc2cc(S(=O)(=O)N(C)C)ccc2n1Cc1ccncc1
i	0.03	Fc1ccccc1-c1ccc(SCc2nc(-c3cccc(Br)c3)no2)nn1
i	-0.03	Cc1cccc(C(=O)Nc2cnc3oc(-c4ccc(C(C)C)cc4)nn3c2=O)c1
i	-0.02	CCn1c(=O)c2sccc2n2c(SCc3cccc(Br)c3)nnc12
i	-0.68	CCCNC(=O)CCc1c(C)nc2nc(NCc3ccc(C)cc3)[nH]n2c1=O
i	-0.26	O=C1C(=O)N(C2CCN(C(=O)c3ccc(Cl)cc3)CC2)CCN1Cc1ccccc1

# One compound at a time (already shown):
# Cc1nc(N2CCOCC2)nc2c1C(=O)CC(C)C2 (stereo unspecified) is listed as Choline anaer gr: i; Choline anaer gr early: 0.4
# C=CCSc1nc2c(-c3ccccc3)cn(C)c2c(=O)n1-c1ccc(CC)cc1 is listed as Choline anaer gr: i; Choline anaer gr early: 0.73

# (cont.)
Choline anaer gr	Choline anaer gr early	Structure
i	-0.12	Cc1ccc(C)c(Cn2cccc2CNC(=O)NCC2CCCO2)c1 (stereo unspecified)
i	0.96	Cc1ccccc1CSc1nnc(-c2ccccc2Cl)o1
i	0.59	O=C(NC1CC1)C1CCCN(C(=O)c2cc(-c3ccncc3)n[nH]2)C1 (stereo unspecified)
i	0.47	COc1cccc(CSc2nc3ccncc3n2Cc2ccc(C(=O)NCc3cccnc3)cc2)c1
i	0.45	CC(C)CC1COC(c2cccn2Cc2ccccc2Br)=N1 (stereo unspecified)
i	0.78	Cc1cc(NC(C)c2ccccc2)n2nc(C)c(-c3ccc(F)cc3)c2n1 (stereo unspecified)
i	-0.08	Cc1ccc(C(=O)N2CCC(C(N)=O)CC2)cc1-n1nnc2cccnc21
i	1.2	Cc1nc(-c2ccc(F)cc2)sc1CCNC(=O)c1ccc(Br)cc1
i	0.71	COc1ccc(CCNc2cc(C)nc3c(-c4ccc(F)cc4)c(C(F)(F)F)nn23)cc1OC
i	0.93	CCCN1CCN(c2cc(C(=O)O)c3cc(NS(=O)(=O)c4c(C)cc(C)cc4C)ccc3n2)CC1
i	2	O=c1c2sccc2n2c(SCc3ccccc3F)nnc2n1Cc1ccccc1
i	1.5	COc1ccc(NC(=O)Cn2c(=O)ccc3cc(S(=O)(=O)N4CCCC4)ccc32)cc1OC
i	0.27	CCCCN(CC)c1ncc(NS(C)(=O)=O)cc1C(=O)O
i	0.74	Cc1ccc(-c2noc(-c3c(C)cc(C)[nH]c3=O)n2)cc1
i	0.44	O=C1C(CCC(O)c2ccc(F)cc2)C(c2ccc(O)cc2)N1c1ccc(F)cc1 (stereo unspecified)
i	0.14	CC1(C(=O)NC2CCCC2)Cn2c(ccc2-c2ccccc2)C(=O)N1CCCc1ccccc1 (stereo unspecified)
i	1.3	Cc1nn2c(SCC(=O)Nc3ccccc3Cl)nnc2[nH]c1=O
i	-0.35	CCn1c(N2CCN(C(=O)Cc3ccccc3Cl)CC2)nc2ccccc21
i	-0.71	O=C(Nc1c(-c2ccc(F)cc2)nc2ccccn12)C1CC1
i	0.17	CC(=O)Nc1ccc(-c2cc(C(=O)NCc3ccc4c(c3)OCO4)c3cc(C)ccc3n2)cc1
i	0.92	O=C(c1ccc2c(c1)OCCO2)N(Cc1ccccn1)c1nc2c(Cl)cccc2s1
i	1.1	O=C(NCc1ccc2c(c1)OCO2)c1ccc(CN2C(=O)CCn3nc(-c4cccc(Cl)c4)cc32)cc1
i	0.04	COc1ccc(-c2nn(CCCC(=O)N3CCN(c4ccc(OC)cc4)CC3)c(=O)c3noc(C)c23)cc1
i	-0.57&0.31&0.6&0.98	CC(C)C(=O)c1c(C(C)C)nn2ccccc12
i	-0.55	O=C(NCCCN1CCOCC1)C1CCN(c2nc3ccccc3n(Cc3ccccc3)c2=O)CC1
i	-0.81	CCOC(=O)c1c(NC(=O)N2CC(C)Oc3ccc(Cl)cc32)sc2c1CCCC2 (stereo unspecified)
i	-0.63	CNC(=O)CCc1nc(-c2cc3ccccc3[nH]c2=O)no1
i	-0.07	Cc1c(C)n(-c2ccccc2)c2nc(C(=O)NC3CCS(=O)(=O)C3)nc(N3CCCCC3)c12 (stereo unspecified)
i	-0.56	CCc1nc2nc3c(c(N4CCN(c5ccccn5)CC4)n2n1)CCC3
i	1.3	CC(=O)Nc1ccc2c(c1)nc(CCNC(=O)C1CC1)n2C
i	0.49&0.47	Cc1ccc(C(=O)c2ccc(CC(=O)O)n2C)cc1
i	0.1	CCOC(=O)C1CCN(c2c(C(=O)c3ccccc3)cnc3ccc(OC)cc23)CC1
i	0.87	O=C(Nc1cnn(-c2ncc(N3CCSCC3)cn2)c1)C1CCCO1 (stereo unspecified)
i	0.93	Cn1c(=O)n(CC(=O)N2CCCC2)c(=O)c2cc(S(=O)(=O)NC3CC3)ccc21
i	0.43	CCOc1ccccc1C1C2=C(CC(C)(C)CC2=O)Nc2onc(C)c21 (stereo unspecified)
i	0.33	O=C(CN(Cc1ccccc1)S(=O)(=O)c1ccc(Cl)cc1)N1CCN(c2ccc(F)cc2)CC1

# An excerpt of these results, field by field.
> CCCN1CCN(c2cc(C(=O)O)c3cc(NS(=O)(=O)c4c(C)cc(C)cc4C)ccc3n2)CC1
  Choline anaer gr = i; Choline anaer gr early = 0.93

> O=c1c2sccc2n2c(SCc3ccccc3F)nnc2n1Cc1ccccc1
  Choline anaer gr = i; Choline anaer gr early = 2
